PABP polyA inh – PABP-poly(A) binding inhibition. inhibition, % at 35 µM. 1% of 290,000 active. PABP-poly(A) RNA binding, fluorescence polarization;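 active means 50% or more with normal probe brightness, or confirmed in later tests; inconclusive means above 50% with abnormal brightness, or retests that disagree; inactive means below 50% or failed in later tests; about a fifth of its hits are not listed in these tables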;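 further: calls also rest on retests at 20 µM and on dose response follow-up; controls were probe without protein and protein plus probe with vehicle; some compounds called inactive have numbers as strong as hits; many hits fall short of the cut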
eIF4H inh – inhibitors of RNA binding by human eIF4H; AID 2012; eIF4H fluorescence polarization binding assay; inhibition, % at 35 µM; Q15056; 0.94% of 290,000 active;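 active means 50% or more with normal probe brightness, or confirmed in later tests; inconclusive means above 50% with abnormal brightness, or retests that disagree; inactive means below 50% or failed in later tests; about a fifth of its hits are not listed in these tables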;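 further: calls also rest on retests at 20 µM and on dose response follow-up; 0% = protein and probe with vehicle and 100% = probe without protein; strong numbers were not always called active; many hits fall short of the cut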
UUG fidelity – modulators of start codon recognition fidelity in yeast; S. cerevisiae UUG-firefly luciferase reporter, luminescence/redox ratio; activity score, % at 18.7 µM; 0.13% of 350,000 active; AID 602363;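 active means replicate mean at a twofold rise or more, about +100% in these data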;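 further: firefly luciferase made from a UUG start codon reports start codon fidelity; reporter light over untreated wells divided by growth signal over untreated wells; some hits fall short of that in this replicate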
HIV Env fusion – inhibitors of HIV Env-mediated cell fusion. HeLa-JRFL Env/CEM21 cell fusion, luciferase. inhibition, % at 12.3 µM. 1.1% of 360,000 active;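 active means mean replicate inhibition score of at least 50 and every replicate individually at or above 50; inconclusive means only one of the two criteria met; inactive means mean below 50 and not all replicates reaching 50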;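 further: 0% = plate neutral controls and 100% = maraviroc near 300 nM; one replicate is shown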
Rce1 inhib – yeast Ras-converting enzyme inhibition; 0.27% of 290,000 active; AID 2563; Q03530; calls only; yeast membranes, quenched prenylated peptide cleavage fluorescence;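 active means fall in fluorescence gain of 50% or more versus controls, with final raw signal at or below 3038400; inconclusive means same 50% fall but final raw signal above 3038400; inactive means fall in fluorescence gain under 50%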;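 further: plate controls were neutral control wells for no effect and wells lacking membranes for full effect; tested at 10 µM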
Target sequence (Q03530 whole entry, looked up): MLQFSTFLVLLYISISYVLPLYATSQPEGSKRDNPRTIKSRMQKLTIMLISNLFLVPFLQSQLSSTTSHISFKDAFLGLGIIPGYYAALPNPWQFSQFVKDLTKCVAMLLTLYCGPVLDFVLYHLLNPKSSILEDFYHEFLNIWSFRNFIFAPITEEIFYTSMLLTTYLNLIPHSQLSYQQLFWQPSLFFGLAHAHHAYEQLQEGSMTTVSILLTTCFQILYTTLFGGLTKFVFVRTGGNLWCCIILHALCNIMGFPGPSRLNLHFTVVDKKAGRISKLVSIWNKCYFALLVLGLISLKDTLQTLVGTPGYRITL
MT1-MMP act inh – blocks activation of human MT1-MMP; P50281; AID 651647; GFP/RFP ratio change, % at 20 µM; 0.061% of 360,000 active; HT1080 RFP-PRO-GFP cells, GFP/RFP ratio fluorescence, overnight; percent of plate control window, DMSO zero;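 active means GFP/RFP ratio change of at least 30% with cell ATP level not reduced by more than half and red fluorescence within 50% of control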; further: strong numbers were not always called active
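Assay system: HT1080 RFP-PRO-GFP cells. Benchmarks: DMSO vehicle wells and RFP-L50D-GFP reporter cell wells. Times: overnight cell settling, then overnight compound exposure, 37 °C, 5% CO2. Compound: 20 µM single dose, 1% DMSO. Read-out basis: GFP/RFP fluorescence ratio.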
CSC inhib – blocks cancer stem cells | cancer stem cell-like cells viability, luminescence | inhibition, % at 7.5 µM | 1.1% of 300,000 active;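 active means mean at 75% or more and at least half the replicates too; inconclusive means mean and replicates disagree; tested in HMLE shEcad cells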;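 further: 0% = median of negative and 100% = median of positive control wells; the first replicate is given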
PABP polyA inh retest – recorded beside PABP polyA inh, whose call it bears; inhibition, %; compound at 20 µM; confirmation repeats;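 mean of two retest wells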
MT1-MMP act inh RFP – second read-out of MT1-MMP act inh, no call of its own (marks repeat the call); RFP signal change, %; measured here: RFP expression control read;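 0 = vehicle wells; hits needed this value within 50% of zero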
The depositor's hits bear a star; i = inactive; ? = inconclusive; · = no result given; + = active, no number. The list is partial; rates above refer to the full screens.

SMILES	PABP polyA inh	eIF4H inh	UUG fidelity	HIV Env fusion	Rce1 inhib	MT1-MMP act inh	MT1-MMP act inh RFP	CSC inhib	others
O=C(CCCN1C(=O)/C(=C\c2cccc(Br)c2)SC1=S)Nc1cccnc1	12	-7	1	1	i	-3	-12	47
Cc1ccc2nsnc2c1NC(=O)c1sc2ccccc2c1Cl	3	7	·	-14	i	3	2	14
CCC1Nc2ncnc(N3CCOCC3)c2N(Cc2ccc(OC)cc2)C1=O (stereo unspecified)	·	·	-11	-7	·	0	4	·
Cc1cc(C)cc(N2CC(O)=C(c3nc4ccccc4c(=O)[nH]3)C2=N)c1	-11	4	·	-77	+	1	-6	37
O=C(CNC(=O)c1ccc(Cl)c([N+](=O)[O-])c1)OCN1C(=O)c2ccccc2C1=O	·	·	·	0	i	-4	-2	-13
Cc1ccc(C)c(NC(=S)N(C2CCCCC2)C(C)c2cccnc2)c1 (stereo unspecified)	-4	-12	4	13	i	2	3	8
COc1cccc(-c2nnc(NC(=O)c3ccco3)s2)c1	-1	24	-15	-31	i	3	4	4
CCCCNC(=O)C(=O)Nc1cc2c3c(c1)CCC(=O)N3CCC2	2	-15	-13	5	i	5	4	-33
Cc1onc(-c2ccccc2)c1C(=O)Nc1nc(-c2ccccc2)cs1	-4	-1	2	·	i	-11	-1	-5
COc1cc(S(=O)(=O)Nc2ccc(C)cc2)ccc1N=Cc1c(C)c(C#N)c(=O)n(C)c1O	10	?	·	4	i	2	1	-4
COc1ccc(CN(C)C(=O)CCl)cc1	-6	-11	·	-1	·	-8	-4	·
CC(C)COc1ccc(-c2cc(C(=O)NN)[nH]n2)cc1	-13	2	·	-18	i	-2	0	10
CCOC(=O)C1(CCOc2ccccc2)CCN(Cc2cccc3c2OCO3)CC1	3	1	·	10	i	-2	-7	14
CCc1onc(C)c1C(=O)Nc1ccc(N2CCOCC2)cc1	·	·	-15	2	·	0	6	·
CCOC(=O)C1CCCN(C(=O)c2ccc(Cl)cc2)C1 (stereo unspecified)	8	3	·	4	i	-2	-5	-4
CCN(CC)S(=O)(=O)c1ccc(S(=O)(=O)NCC2CCCO2)cc1 (stereo unspecified)	10	-7	-6	5	i	4	1	-7
COC(C/C=C/C(=O)[C@H](C)OCc1ccccc1)OC	·	·	-12	·	+	-5	-21	6
O=C(NCCC1=CCCCC1)N[C@@H](Cc1ccccc1)C(=O)O	8	3	3	·	i	3	0	0
N#CC(C#N)=C1C(=O)N(CCN2CCOCC2)c2ccccc21	25	13	-5	7	i	9	11	3
COc1ccc(CCNc2cc(C)nc3c(-c4ccc(Cl)cc4)cnn23)cc1OC	8	-4	-9	12	i	-3	-2	92*
CCNC(=O)COC(=O)c1cccc(Br)c1	13	10	-4	2	i	-2	1	-5
CC(NC(=O)C1CCN(CCOc2ccc(Cl)cc2)CC1)c1cccc2ccccc12 (stereo unspecified)	·	·	0	-1	·	10	-5	·
CC1=CC(C)C2(COC(=O)Nc3ccccc3)COC(C)C1C2C (stereo unspecified)	-5	6	·	-1	i	10	-1	-7
Cn1cccc1/C=C1\SC(=S)N(NC(=O)c2ccccc2)C1=O	2	?	·	·	·	-7	3	-6
Cc1nc(-c2cccc(Cl)c2)n[nH]1	-2	-7	·	-7	i	2	-1	-6

Continuation:
SMILES	PABP polyA inh	eIF4H inh	UUG fidelity	HIV Env fusion	Rce1 inhib	MT1-MMP act inh	MT1-MMP act inh RFP	CSC inhib	others
CCOC(=O)CCCCCC(=O)Nc1ccc2c(c1)CC(=O)N([C@@H](C)CO)C[C@@H](C)[C@@H](CN(C)C(=O)Nc1ccc(C(F)(F)F)cc1)O2	·	·	-7	-25	·	-3	1	0
COc1ccc(C(=O)NCc2csc(C(C)C)n2)cc1OC1CCN(C(C)=O)CC1	9	4	-7	-14	i	2	1	-23
CCOC(=O)c1c(C)[nH]c(C)c1C(=O)CSc1nc2ccccc2c(=O)n1-c1ccc(F)cc1	-1	1	·	2	i	-8	-13	-5
COc1ccc(CCNC(=O)CSc2nnc(-c3cccc(C)c3)o2)cc1OC	-8	0	-18	27	·	4	1	-7
NNC(=O)c1cc2cc3ccccc3nc2s1	-3	2	-15	-29	·	2	7	6
CCC(C)(C)NC(=O)C(c1ccc(C)cc1)N(CC1CCCO1)C(=O)CNC(=O)c1cccs1 (stereo unspecified)	1	-7	-8	23	i	0	3	32
CC(C)[C@@H](C(=O)NC1CCCC1)N1C(=O)N2CCc3c([nH]c4ccccc34)[C@@]2(C)C1=O	4	-4	9	·	i	1	-7	-1
COc1ccccc1NC(=O)c1ccc2c(c1)OCO2	-8	-6	-12	-23	·	-3	3	-2
O=C(CCS(=O)(=O)Cc1ccccc1F)N1CCc2ccccc2C1	-4	5	-8	·	i	1	4	-7
Cc1noc(C)c1C(=O)N1CCc2ccccc2C1	7	0	-3	-54	i	4	6	-4
Cc1ccc(NC(=O)CNc2cc(S(=O)(=O)N3CCOCC3)ccc2N2CCOCC2)cc1S(=O)(=O)N(C)C	·	·	0	-19	·	2	-2	-8
Nc1ccc2oc(-c3ccccn3)nc2c1	1	-1	-24	-55	i	3	-2	-15
O=C(NCCc1ccccc1)Nc1nnc([C@@H]2C[C@H](O)[C@@H](CO)O2)s1	·	·	-16	-17	·	-4	2	·
CCCCn1nc(C(=O)OCC(=O)Nc2sccc2C(N)=O)c2ccccc2c1=O	-10	-4	6	11	i	0	1	-8
Cc1cc(-n2c(C)cc(C(=O)CSc3nnnn3-c3ccccc3)c2C)no1	-6	11	-32	·	i	9	-2	8
Cc1ccc(C)c(N2CCN(CC(=O)Nc3ccc([N+](=O)[O-])cc3C(=O)Nc3ccccc3F)CC2)c1	-3	-2	·	·	i	-15	-12	21
NS(=O)(=O)c1ccc(CCNC(=O)COC(=O)CCSc2ccc(Cl)cc2)cc1	5	-4	-7	15	i	-1	4	6
Fc1ccccc1OCC1CCCN(Cc2nc(CC3CC3)no2)C1 (stereo unspecified)	-12	-12	·	10	i	-3	-3	0
O=C(NCCN1CCN(C(=O)c2cccc([N+](=O)[O-])c2)CC1)C(=O)NCc1ccc(Cl)cc1	-4	-7	8	-199	i	4	-9	4
O=C(CSc1nnc(-c2ccc(O)cc2)o1)NNC(=O)c1ccncc1	5	11	-13	-1	i	-1	-3	·
CCOC(=O)C1CCCN(C(=O)C(C)Oc2ccc(Cl)cc2Cl)C1 (stereo unspecified)	32	-6	·	·	·	0	2	-16
COC(=O)c1ccc(NC(=O)CCS(=O)(=O)c2ccc(C)cc2)cc1	0	-5	1	-10	i	1	5	·
O=C(c1cc2cc([N+](=O)[O-])ccc2oc1=O)N1CCN(C2CCCCC2)CC1	3	1	1	-8	i	4	1	·
COc1ccc(CC(=O)OCC(=O)NCc2ccc(Cl)cc2)cc1	5	5	·	3	i	0	-2	0
CCOC(=O)c1c(CN2CCCCC2)n(C)c2cc(Br)c(O)cc12	1	-8	7	-26	i	7	-5	14

The list goes on.
SMILES	PABP polyA inh	eIF4H inh	UUG fidelity	HIV Env fusion	Rce1 inhib	MT1-MMP act inh	MT1-MMP act inh RFP	CSC inhib	others
Cc1c(C(=O)NC(=S)Nc2ccc(N3CCOCC3)cc2)cccc1[N+](=O)[O-]	73	?	·	-5	i	6	2	-1	PABP polyA inh retest=30
COc1ccc(C(CNC(=O)c2cccc(NC(=O)c3cccs3)c2)N2CCCC2)cc1 (stereo unspecified)	·	·	-15	·	·	-5	0	0
N#C/C(=C\c1cccnc1)c1ccc(Br)cc1	12	2	-17	-6	i	-2	-8	12
COc1ccc(N2CCN(C(c3ccccc3)c3nnnn3Cc3ccc(F)cc3)CC2)cc1 (stereo unspecified)	4	-4	17	·	i	-5	-15	·
Cc1c(N)cccc1-n1cnnn1	8	23	·	-12	i	0	-2	-10
Cc1cccc(CN2CCNC2=O)c1	12	8	-9	-6	i	6	2	-10
COc1ccc(CN(Cc2cc3ccc(C)cc3[nH]c2=O)Cc2nnnn2C2CCCC2)cc1	27	-6	-7	4	·	-3	0	-14
O=C(Nc1ccccc1-c1nnn(CC(=O)N2CCCc3ccccc32)n1)c1ccc(Cl)cc1	8	-14	-21	-24	i	2	-3	3
Cc1c(Cl)cccc1NS(=O)(=O)c1c(C(=O)N2CCOCC2)c(C)n(C)c1C	-3	4	3	6	i	-5	0	8
CC(C(=O)NC1C=CS(=O)(=O)C1)N1C(=O)/C(=C\c2ccccc2)SC1=S (stereo unspecified)	5	-6	-2	5	i	-2	-1	5
COc1cc(/C=C(\NC(=O)c2ccccc2)C(=O)Nc2nccs2)ccc1OC(C)=O	-1	0	-17	4	i	2	1	-15
CCOC(=O)CCNC(=O)N1CCCC(CNS(=O)(=O)c2cccs2)C1 (stereo unspecified)	5	4	·	0	i	3	9	15
CCOc1ccc(OCCCCNCCN)cc1	5	-5	·	·	i	·	·	-2
CCOC(=O)c1cc(CC)sc1NC(=O)Cc1ccsc1	2	-8	0	·	i	4	-9	29

Part of the list above in order of molar mass, falling:
SMILES	PABP polyA inh	eIF4H inh	UUG fidelity	HIV Env fusion	Rce1 inhib	MT1-MMP act inh	MT1-MMP act inh RFP	CSC inhib	others
Cc1ccc(NC(=O)CNc2cc(S(=O)(=O)N3CCOCC3)ccc2N2CCOCC2)cc1S(=O)(=O)N(C)C	·	·	0	-19	·	2	-2	-8
O=C(Nc1ccccc1-c1nnn(CC(=O)N2CCCc3ccccc32)n1)c1ccc(Cl)cc1	8	-14	-21	-24	i	2	-3	3
COc1ccc(CN(Cc2cc3ccc(C)cc3[nH]c2=O)Cc2nnnn2C2CCCC2)cc1	27	-6	-7	4	·	-3	0	-14
NS(=O)(=O)c1ccc(CCNC(=O)COC(=O)CCSc2ccc(Cl)cc2)cc1	5	-4	-7	15	i	-1	4	6
COc1ccc(C(=O)NCc2csc(C(C)C)n2)cc1OC1CCN(C(C)=O)CC1	9	4	-7	-14	i	2	1	-23
Cc1c(C(=O)NC(=S)Nc2ccc(N3CCOCC3)cc2)cccc1[N+](=O)[O-]	73	?	·	-5	i	6	2	-1	PABP polyA inh retest=30
O=C(c1cc2cc([N+](=O)[O-])ccc2oc1=O)N1CCN(C2CCCCC2)CC1	3	1	1	-8	i	4	1	·
CCC1Nc2ncnc(N3CCOCC3)c2N(Cc2ccc(OC)cc2)C1=O (stereo unspecified)	·	·	-11	-7	·	0	4	·
CCOC(=O)C1CCCN(C(=O)C(C)Oc2ccc(Cl)cc2Cl)C1 (stereo unspecified)	32	-6	·	·	·	0	2	-16
Cc1ccc2nsnc2c1NC(=O)c1sc2ccccc2c1Cl	3	7	·	-14	i	3	2	14
Fc1ccccc1OCC1CCCN(Cc2nc(CC3CC3)no2)C1 (stereo unspecified)	-12	-12	·	10	i	-3	-3	0
CC1=CC(C)C2(COC(=O)Nc3ccccc3)COC(C)C1C2C (stereo unspecified)	-5	6	·	-1	i	10	-1	-7
CCc1onc(C)c1C(=O)Nc1ccc(N2CCOCC2)cc1	·	·	-15	2	·	0	6	·
CCOc1ccc(OCCCCNCCN)cc1	5	-5	·	·	i	·	·	-2
COc1ccc(CN(C)C(=O)CCl)cc1	-6	-11	·	-1	·	-8	-4	·
Nc1ccc2oc(-c3ccccn3)nc2c1	1	-1	-24	-55	i	3	-2	-15
